Screening data (PubChem BioAssay)
HIV Env fusion = blocks HIV Env-driven cell-cell fusion; HeLa-JRFL Env/CEM21 cell fusion, luciferase; inhibition, % at 12.3 µM; 360,000 compounds, 1.1% hits;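 active means mean replicate inhibition score of at least 50 and every replicate individually at or above 50; inconclusive means only one of the two criteria met; inactive means mean below 50 and not all replicates reaching 50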;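 further: 0% = plate neutral controls and 100% = maraviroc near 300 nM; one replicate is shown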
CSC inhib = blocks cancer stem cells. AID 2717. 300,000 compounds, 1.1% hits. cancer stem cell-like cells viability, luminescence. inhibition, % at 7.5 µM;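 active means mean at 75% or more and at least half the replicates too; inconclusive means mean and replicates disagree; tested in HMLE shEcad cells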;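 further: 0% = median of negative and 100% = median of positive control wells; the first replicate is given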
eIF4H inh = inhibitors of RNA binding by human eIF4H | Q15056 | eIF4H fluorescence polarization binding assay | inhibition, % at 35 µM | 290,000 compounds, 0.94% hits | AID 2012;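 active means 50% or more with normal probe brightness, or confirmed in later tests; inconclusive means above 50% with abnormal brightness, or retests that disagree; inactive means below 50% or failed in later tests; about a fifth of its hits are not listed in these tables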;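 further: calls also rest on retests at 20 µM and on dose response follow-up; 0% = protein and probe with vehicle and 100% = probe without protein; strong numbers were not always called active; many hits fall short of the cut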
PABP FP inh = PABP-poly(A) binding inhibition | inhibition, % at 35 µM | PABP-poly(A) RNA binding, fluorescence polarization | P11940 | 290,000 compounds, 1% hits;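 active means 50% or more with normal probe brightness, or confirmed in later tests; inconclusive means above 50% with abnormal brightness, or retests that disagree; inactive means below 50% or failed in later tests; about a fifth of its hits are not listed in these tables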;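 further: calls also rest on retests at 20 µM and on dose response follow-up; controls were probe without protein and protein plus probe with vehicle; some compounds called inactive have numbers as strong as hits; many hits fall short of the cut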
Target sequence (P11940 whole entry, looked up): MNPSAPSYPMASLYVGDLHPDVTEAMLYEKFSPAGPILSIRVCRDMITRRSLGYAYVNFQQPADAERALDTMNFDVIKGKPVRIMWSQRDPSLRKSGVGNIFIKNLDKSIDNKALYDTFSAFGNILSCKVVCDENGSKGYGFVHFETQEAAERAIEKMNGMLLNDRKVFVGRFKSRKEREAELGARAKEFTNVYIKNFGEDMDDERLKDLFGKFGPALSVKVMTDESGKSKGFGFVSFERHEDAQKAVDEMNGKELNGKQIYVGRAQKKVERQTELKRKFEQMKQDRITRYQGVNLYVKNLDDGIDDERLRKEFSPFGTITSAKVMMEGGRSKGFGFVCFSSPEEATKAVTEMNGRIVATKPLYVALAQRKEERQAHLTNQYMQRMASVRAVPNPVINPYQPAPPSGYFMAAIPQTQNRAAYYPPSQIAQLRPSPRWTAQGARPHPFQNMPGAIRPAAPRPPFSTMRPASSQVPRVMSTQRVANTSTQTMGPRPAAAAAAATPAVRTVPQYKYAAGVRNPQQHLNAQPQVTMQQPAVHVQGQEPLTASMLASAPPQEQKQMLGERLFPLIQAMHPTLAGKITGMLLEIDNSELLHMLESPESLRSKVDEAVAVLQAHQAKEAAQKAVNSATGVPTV
Rce1 inhib = yeast Ras-converting enzyme inhibition; yeast membranes, quenched prenylated peptide cleavage fluorescence; calls only; 290,000 compounds, 0.27% hits;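 active means fall in fluorescence gain of 50% or more versus controls, with final raw signal at or below 3038400; inconclusive means same 50% fall but final raw signal above 3038400; inactive means fall in fluorescence gain under 50%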;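 further: plate controls were neutral control wells for no effect and wells lacking membranes for full effect; tested at 10 µM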
Yeast UUG start = alters start codon recognition fidelity in yeast; S. cerevisiae UUG-firefly luciferase reporter, luminescence/redox ratio; activity score, % at 18.7 µM; 350,000 compounds, 0.13% hits;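 active means replicate mean at a twofold rise or more, about +100% in these data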;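 further: firefly luciferase made from a UUG start codon reports start codon fidelity; reporter light over untreated wells divided by growth signal over untreated wells; some hits fall short of that in this replicate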
MT1-MMP act inh = MT1-MMP (human) activation inhibition. P50281. HT1080 RFP-PRO-GFP cells, GFP/RFP ratio fluorescence, overnight; percent of plate control window, DMSO zero. GFP/RFP ratio change, % at 20 µM. 360,000 compounds, 0.061% hits. AID 651647;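 active means GFP/RFP ratio change of at least 30% with cell ATP level not reduced by more than half and red fluorescence within 50% of control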; further: strong numbers were not always called active
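Assay system: RFP-PRO-GFP reporter HT1080 cells; read-out basis: GFP/RFP fluorescence ratio; benchmarks: DMSO wells and RFP-L50D-GFP cells; doses: 20 µM single dose, 1% DMSO; schedule: overnight cell settling, then overnight compound exposure, 37 °C, 5% CO2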
eIF4H inh retest = recorded beside eIF4H inh, whose call it bears; inhibition, %; compound at 20 µM; confirmation average;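 mean of two retest wells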
PABP FP inh retest = also measured in PABP FP inh; calls as there; inhibition, %; compound at 20 µM; confirmation repeats;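 mean of two retest wells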
MT1-MMP act inh RFP = second read-out of MT1-MMP act inh, no call of its own (marks repeat the call); RFP signal change, %; measured here: RFP expression control read;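 0 = vehicle wells; hits needed this value within 50% of zero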
* marks the source's active call; other numbers are inactive results; i = inactive; ? = inconclusive; · = no result given; & = joins results of further samples.

SMILES	HIV Env fusion	CSC inhib	eIF4H inh	PABP FP inh	Rce1 inhib	Yeast UUG start	MT1-MMP act inh	MT1-MMP act inh RFP	others
CC(=O)NCc1ccc(-c2nc3ccccc3s2)cc1	-78	-14	-7	3	i	-29	3	-6
CCCOc1cccc(-c2cc(C(=O)N/N=C/c3cccnc3)c3ccccc3n2)c1	22	-10	-4	-1	i	-15	5	-1
O=C1CC(C(=O)Nc2cccc(F)c2)n2ncnc2N1 (stereo not given)	13	-32	3	-13	i	-20	0	3
Cc1occc1C(=O)NCc1ccc(C(=O)O)o1	-6	12	7	32	i	-16	5	2
O=C(CCc1ccccc1)NNC(=O)COc1ccccc1	12	-3	-12	0	i	-3	3	-1
Cc1ccc(C(=O)COC(=O)C2CC3CCCC(C2)C3=O)cc1[N+](=O)[O-] (stereo not given)	2	-12	·	·	i	-20	6	0
CCOCCCN(C(=O)Cn1nnc(-c2ccc(C)o2)n1)C(C(=O)NC1CCCC1)c1ccco1 (stereo not given)	-6	5	0	6	i	-1	1	1
CNC(C)C(=O)NC(C(=O)N1CCCC1C(=O)NC1CCCc2ccccc21)C(C)C (stereo not given)	-28	13	·	·	·	2	15	7
CCCN1CCC(=O)N(CCSc2ccccc2)CC1	-37	12	5	-1	i	-23	6	5
COc1ccccc1N1CCN(C(=O)Cc2ccc(Cl)cc2)CC1	-34	-23	-10	0	i	-64	4	0
O=C(CSc1nc2ccccc2c(=O)n1CCCN1CCOCC1)N1CCN(c2ccccc2)CC1	14	·	-2	-16	i	8	2	1
CNC(=O)c1sccc1SCc1ccc(Cl)cc1Cl	·	1	2	-1	i	7	-4	-4
O=C(/C=C/c1ccco1)NC(=S)Nc1ccc(O)c(-c2nc3ccccc3s2)c1	1	·	64	-12	i	-3	-8	-6	eIF4H inh retest=36;PABP FP inh retest=46
Cc1ccc2oc3c(c(=O)c2c1)C(c1cccc(Br)c1)N(Cc1ccco1)C3=O (stereo not given)	·	·	0	-8	·	-13	5	1
O=C(O)c1ccc(NC(=S)NC(=O)c2cccnc2)cc1	-6	-20	-9	-2	i	-20	-3	0
CC(C)CN(C(=O)COC(=O)c1ccccc1SCC(=O)NC1CCCCCC1)C1CCS(=O)(=O)C1 (stereo not given)	21	-3	12	3	i	·	-3	-1
c1ccc2[nH]c(Cn3nnc4ccccc43)nc2c1	-6	-5	·	·	i	-24	6	0
Nc1nc(-c2cccs2)c(NC(=O)c2ccccc2)s1	·	4	7	5	i	-25	-1	7
COc1ccc(C(CNC(=O)Cc2cccs2)N(C)C)cc1 (stereo not given)	-7	-12	-10	-4	i	-8	-3	-1
O=C(Oc1ccc(-c2nc(-c3ccccn3)no2)cc1)c1ccccc1	-224	129*	11	-4	i	-49	-6	2
NNC(=O)Cn1c(-c2ccccc2)cc(=O)n2ncnc12	-3	0	-4	-4	i	·	-1	1
CC1(C)[C@H]2CC[C@]1(C)[C@@H](OC(=O)C[N+]1(C)CCOCC1)C2	11	9	-2	-6	i	-8	6	1
CC(=O)N1CCCc2cc(S(=O)(=O)NC(C(=O)NC(C)c3ccccc3)C(C)C)ccc21 (stereo not given)	-55	-6	-7	-5	i	-7	2	3
CN(C(=O)COC(=O)c1ccccc1SCC(=O)NC1CCCCCCC1)C1CCS(=O)(=O)C1 (stereo not given)	1	-12	-1	8	i	-9	1	-1
Cc1cc(=O)oc2c1c(C(F)(F)F)nn2-c1ccccc1	-4	-5	-4	-8	i	5	0	0
COc1ccccc1NC(=O)CSc1nc2n[nH]c(C)c2c(=N)n1-c1ccccc1Cl	·	17	-12	-9	i	·	-6	-12
CCCN1CNc2c(c(=O)[nH]c(=S)n2-c2ccc(Cl)cc2)C1	-11	-9	0	-1	i	·	-1	-2
CC(C)NC(=O)CN1C(=O)c2cccc3cccc1c23	1	-4	-2	11	i	-7	-4	-2
CC1=NN(C(=O)c2ccccc2Br)C(O)(c2ccc(Cl)cc2)C1 (stereo not given)	4	0	-4	-3	i	-23	-3	1
CCC(C)N1C(=O)C2C(C(=O)Nc3cccc(OC)c3)C3C=CC2(O3)C1C(=O)NC1CCCCC1C (stereo not given)	-26	·	-15	-4	·	1	5	-2
Cc1cccc(NC(=O)CC2C(=O)NC3CCCCC3N2C(=O)c2ccccc2Cl)c1 (stereo not given)	3	-10	-4	6	i	17	1	-3
O=C(NCCNC(=O)c1cccs1)c1ccco1	-59	-1	11	5	i	-33	-2	2
Cc1ccc(S(=O)(=O)NCC(=O)OCC(=O)N(C)C2CCCCC2)cc1	·	-9	·	·	·	-14	-1	1
CCCn1c(=O)c2ccccc2n2c(SCC(=O)c3ccccc3)nnc12	·	-10	-2	-5	i	-11	-2	0
COCCN(C(=O)C1CCCO1)c1c(N)n(CC(C)C)c(=O)[nH]c1=O (stereo not given)	7	-5	·	·	·	-3	-1	1
COCCNC(=O)C1(C)CCCN(Cc2cn(C)c3ccccc23)C1 (stereo not given)	3	·	·	·	·	-9	0	4
COc1cc(C2Nc3ccc4ncccc4c3C3=C2C(=O)CCC3)ccc1O (stereo not given)	·	56	10	11	i	-1	-5	-10
COc1ccc(N2CCN(CC(=O)Nc3c(C)cccc3C)CC2)cc1	24	·	·	·	·	-10	-1	3
CCCc1cc(=O)oc2cc(OCC(=O)NCC(O)c3ccccc3)ccc12 (stereo not given)	-8	-5	-13	0	i	-5	-2	0
CCCCN(C=O)c1c(CC)nc2c(OCc3ccc(S(C)(=O)=O)cc3)cccn12	22	·	·	·	·	-11	1	-6
O=C1CC(c2ccccc2)CC(O)=C1C=NCCCO (stereo not given)	·	-3	2	16	i	-5	3	6
Cc1ccc(CNS(=O)(=O)c2ccc(Br)s2)cc1	12	-3	2	-3	i	4	-3	0
CCOc1ccc(S(=O)(=O)N2CCC(C(=O)NCc3ccco3)CC2)cc1C	-3	-6	-12	3	i	·	2	0
COc1ccc(-c2cc3nc(-c4ccccc4)cc(N4CCC(O)CC4)n3n2)cc1	25	·	8	3	i	·	2	-3
COc1ccccc1C(=O)NC(=O)Nc1nc(-c2ccccc2)cc(C(F)(F)F)n1	0	29	-6	-5	i	-16	2	-4
CCOc1ccc(S(=O)(=O)Nc2cccc(C(=O)N3CCN(c4ccccn4)CC3)c2)cc1	?	·	·	·	·	10	-1	-16
CC(=O)c1ccc(N(CC(=O)NC2CCCCC2)C(=O)CNC(=O)c2cccs2)cc1	-12	·	-2	-4	i	4	0	5
COc1cccc2cc(C(=O)N3CCN(C45CC6CC(CC(C6)C4)C5)CC3)c(=O)oc12	·	-3	-2	2	i	-7	-4	4
CC(C)COC(=O)N(C)C[C@H]1OCc2cn(nn2)CCCC(=O)N([C@@H](C)CO)C[C@@H]1C	18	·	·	·	·	3&-14	1	5
CC(Oc1ccc2c(-c3ccccc3)cc(=O)oc2c1)C(=O)NC(Cc1c[nH]c2ccccc12)C(=O)O (stereo not given)	33	-16	·	·	·	11	2	9
O=S(=O)(c1ccc(N2CCOCC2)cc1)N1CCOCC1	5	-3	-13	-5	i	-19	-1	9
c1ccc(-c2nnc3sc(-c4csc5c4CCCC5)nn23)cc1	·	50	4	8	i	·	-4	-2
N#CC(C#N)=C1CCc2ccccc2N1	-34	-2	-4	-6	i	-13	-5	-2
Clc1cccc(-c2nnc(SC/C=C/c3ccccc3)n2Cc2ccco2)c1	·	33	-3	-6	i	-4	1	2
OC1CCN(c2ncnc3c2nnn3Cc2c(F)cccc2Cl)CC1	·	-6	-9	-3	i	-16	5	7
O=C(COC(=O)Cc1ccc(-c2ccccc2)cc1)NCc1ccc(F)cc1	13	-1	1	8	i	·	3	4
N=c1oc2ccc(Cl)cc2cc1C(=O)NC1CCCCCC1	-332	-16	17	7	i	-15	-1	-3
CCc1nn(CC(=O)O)c(=O)c2ccccc12	·	-2	-4	18	i	-16	-1	1
Cc1c(Cl)ccc(S(=O)(=O)NCCN2CCOCC2)c1Cl	1	-17	-10	-1	i	-17	6	-8
COc1cc(-c2n[nH]c(=S)n2-c2cc(C(F)(F)F)ccc2Cl)cc(OC)c1OC	4	-10	-7	3	i	·	2	5
(listing goes on)
SMILES	HIV Env fusion	CSC inhib	eIF4H inh	PABP FP inh	Rce1 inhib	Yeast UUG start	MT1-MMP act inh	MT1-MMP act inh RFP	others
O=C(CN1CCCCCC1)Nc1ccccc1Cl	9	-5	-2	-2	i	-11	1	2
COC(=O)C1=C(C)N(Cc2ccccc2)C(=NCC(C)C)N[C@H]1c1ccccc1	·	-13	94	61*	i	·	·	·	eIF4H inh retest=21;PABP FP inh retest=100*
O=C(NCc1ccccc1)/C(=C\c1ccc([N+](=O)[O-])cc1)NC(=O)c1ccco1	18	-3	10	-4	i	4	-1	4
O=C(Nc1ccccc1C(F)(F)F)c1ccc2nccnc2c1	14	-1	10	0	i	-10	-11	-3

Structures above with a furan ring, fused or not:
SMILES	HIV Env fusion	CSC inhib	eIF4H inh	PABP FP inh	Rce1 inhib	Yeast UUG start	MT1-MMP act inh	MT1-MMP act inh RFP	others
Cc1occc1C(=O)NCc1ccc(C(=O)O)o1	-6	12	7	32	i	-16	5	2
CCOCCCN(C(=O)Cn1nnc(-c2ccc(C)o2)n1)C(C(=O)NC1CCCC1)c1ccco1 (stereo not given)	-6	5	0	6	i	-1	1	1
O=C(/C=C/c1ccco1)NC(=S)Nc1ccc(O)c(-c2nc3ccccc3s2)c1	1	·	64	-12	i	-3	-8	-6	eIF4H inh retest=36;PABP FP inh retest=46
Cc1ccc2oc3c(c(=O)c2c1)C(c1cccc(Br)c1)N(Cc1ccco1)C3=O (stereo not given)	·	·	0	-8	·	-13	5	1
O=C(NCCNC(=O)c1cccs1)c1ccco1	-59	-1	11	5	i	-33	-2	2
CCOc1ccc(S(=O)(=O)N2CCC(C(=O)NCc3ccco3)CC2)cc1C	-3	-6	-12	3	i	·	2	0
Clc1cccc(-c2nnc(SC/C=C/c3ccccc3)n2Cc2ccco2)c1	·	33	-3	-6	i	-4	1	2
O=C(NCc1ccccc1)/C(=C\c1ccc([N+](=O)[O-])cc1)NC(=O)c1ccco1	18	-3	10	-4	i	4	-1	4
